Bioassay records as filed in PubChem.
HCMV UL50-53 inh = disrupts HCMV UL50-UL53 complex binding. HTRF UL50-UL53 interaction, normalized percent inhibition. inhibition, % (test concentration not listed). AID 1918969. actives 0.15% (n = 190,000);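 active = both replicates at 50% or more, plus weaker picks with an unusually low signal ratio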;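 note: stock transfer was 100 nL into about 20 µL; 0% = negative control wells and 100% = wells with untagged competitor protein; inactives centre near -12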
GIV-Gai inh = blocks GIV peptide binding to rat Galpha-i3; Galpha-i3/FITC-GIV peptide fluorescence polarization, 90 min; stronger effect = lower value; scaled: aluminum fluoride 0%, vehicle 100%; percent of control (FP), % (concentration not given with the values); actives 0.42% (n = 210,000); AID 1224905;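 active = replicate mean at 85% of control or lower, very high polarization wells dropped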;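 note: wells of about 15 µL received 100 nL stock; the first replicate is given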
Target sequence (P08753 whole entry, looked up): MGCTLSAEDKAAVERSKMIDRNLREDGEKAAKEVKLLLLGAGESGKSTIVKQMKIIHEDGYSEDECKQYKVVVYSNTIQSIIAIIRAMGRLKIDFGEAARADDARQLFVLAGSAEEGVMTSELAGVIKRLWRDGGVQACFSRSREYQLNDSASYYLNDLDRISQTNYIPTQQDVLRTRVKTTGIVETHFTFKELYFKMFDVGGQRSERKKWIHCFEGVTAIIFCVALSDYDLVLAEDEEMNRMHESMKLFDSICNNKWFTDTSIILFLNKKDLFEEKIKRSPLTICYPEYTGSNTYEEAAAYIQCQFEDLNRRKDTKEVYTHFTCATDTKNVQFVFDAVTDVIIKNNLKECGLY
Sa growth 42C = S. aureus growth inhibition | AID 720641 | S. aureus RN4220 growth, OD600, 20 h, 42 °C; stronger effect = lower value | relative growth, % (test concentration not listed) | actives 0.53% (n = 170,000);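 active = growth at 42 °C up to 50% and 20 or more points under that at 30 °C, or under 10% at both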;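 note: 300 nL library stock went into each well; scaled to the means of positive and negative controls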
Sa growth 42C second temp = second read-out of Sa growth 42C, no call of its own (marks repeat the call); relative growth, %; measured here: growth at 30 °C;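 optical density after 20 h as mean of two plates; 100% = untreated growth and lower means inhibition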
An asterisk follows results filed as active; · = no result given; & = joins results of further samples.

Values run as follows: HCMV UL50-53 inh, GIV-Gai inh, Sa growth 42C, Sa growth 42C second temp
Cc1cc(N2CCN(Cc3ccccc3)CC2)n2nc(C)c(-c3ccccc3)c2n1
→ -1, 101, ·, ·
Cc1ccc(-n2c(SCc3ccccc3)nnc2-c2cccnc2)cc1Cl
→ ·, 101, 91, 61
O=c1[nH]c2ccccc2c2ccccc12
→ -2&-16, 107, ·, ·
CCCc1ccc(S(=O)(=O)N2CCC(N3CCN(Cc4cccc(F)c4)C(=O)C3=O)CC2)cc1
→ 0, 98, ·, ·
Cn1cccc1C(=O)Nc1ccc2c(c1)nc1n2CCCCC1
→ -7, ·, 97, 94
COC(=O)Cc1c(C)nc2nc(NCc3ccc(Br)cc3)[nH]n2c1=O
→ 3, 108, 107, 97
CCn1c(C(=O)N2CCC(C(=O)NCc3cccc(OC)c3)CC2)cc2occc21
→ -25&-31, 103&97, 94, 86
c1ccc(-c2nnc(-c3ccccc3)n2-c2ccncc2)cc1
→ -9, 94, 92, 85
NC(CC(=O)OC1CCCCC1)C(=O)OC1CCCCC1 (configuration not stated)
→ -10, 101, 118, 98
CCc1ccccc1NS(=O)(=O)c1ccc2c(c1)N(CC(=O)OC)C(=O)CS2
→ -4, 105, ·, ·
COc1ccc(OC2CCNCC2)cc1
→ -8, 97, 87, 86
COc1ccc(N2C(=O)CC(NC34CC5CC(CC(C5)C3)C4)C2=O)cc1 (configuration not stated)
→ -11, 103, 110, 51
O=C(NCc1ccccc1)c1ccc2nc(N3CCCCC3)sc2c1
→ 1, 101, 107, 84
NS(=O)(=O)c1ccc(CNCC(F)(F)F)cc1
→ -7, ·, 90, 94
CCC(=O)Nc1sc2c(c1C(=O)N1CCCCC1)CCCCC2
→ -17, ·, 107, 82
CCCOc1ccc(-c2nonc2NC(=O)c2oc3ccc(F)cc3c2C)cc1OCCC
→ -6, 98, 97, 90
CCOC(=O)c1ccc(NC(=O)c2cnc3sccn3c2=O)cc1
→ -23, 102, 92, 87
CCOC(=O)c1c(C)n(-c2ccccc2)c2ccc(OC(=O)c3ccc(C)cc3)cc12
→ -13, 110, ·, ·
CC1(C)N=C(c2c(F)c(F)c(F)c(F)c2F)N(O)C1(O)c1ccccc1 (configuration not stated)
→ -4, 99, 102, 101
Cc1cc(-c2nn3cnnc3s2)c2ccccc2n1
→ -78, 92, ·, ·
COC(=O)c1c(C)nc(C)c(C(=O)OC)c1-c1csc(S(=O)(=O)N2CCSCC2)c1
→ -39, 108, 114, 90
NS(=O)(=O)c1ccc(NC(=S)N2CCc3ccccc3C2)cc1
→ ·, 106, 107, 90
Cc1nnsc1C(=O)NCc1c(Cl)cccc1Sc1ccc(Cl)cc1
→ 20, 101, 123, 99
Cc1ccc(-c2noc(CSc3ccc(-c4ccccc4)nn3)n2)cc1
→ -16, 102, ·, ·
Cc1ccc(Cn2c(=O)c3cccnc3n(Cc3ccc(C)cc3)c2=O)cc1
→ -35, 103, 98, 88
Cc1ccc(C)c(CN2C(=O)c3ccccc3S(=O)c3ccc(C(=O)N4CCN(c5ccccc5F)CC4)cc32)c1 (configuration not stated)
→ -26, 96, 99, 89
O=C(O)c1oc2ccc(Br)cc2c1-n1cccc1
→ ·, 101, 95, 83
Cc1cc(F)ccc1NC(=O)C1CCC(CNS(=O)(=O)c2ccc3c(c2)CCCC(=O)N3)CC1 (configuration not stated)
→ ·, 96, 89, 89
O=C(Nc1nc2c(s1)CCCC2)C1COc2ccccc2O1 (configuration not stated)
→ -8, 111, ·, ·
O=C(O)CC(CC(=O)Nc1ccc(N2CCOCC2)cc1)c1ccccc1 (configuration not stated)
→ 2, 103, 101, 90

(further entries)
Values run as follows: HCMV UL50-53 inh, GIV-Gai inh, Sa growth 42C, Sa growth 42C second temp
COc1ccc(-c2cc(C(=O)NCCc3ccc(OC)c(OC)c3)c3c(-c4ccc(F)cc4)[nH]nc3n2)cc1
→ ·, 112, 113, 86
O=c1[nH]c2cc(-c3nc(-c4ccc5c(c4)OCO5)no3)ccc2c(=O)n1-c1ccc(F)cc1
→ -12, 104, ·, ·
COc1cc(Nc2nc3ccccc3n3nnnc23)cc(OC)c1OC
→ -4, 112, 91, 83
O=C(Nc1ccc(F)c(Cl)c1)C1CCN(c2ncccn2)CC1
→ -32, 97, 90, 85
CCN(C(=O)c1ccc2c(=O)n3c(nc2c1)CCCCC3)c1cc(Cl)ccc1OC
→ ·, 106, 93, 90
Cc1cc(C)c(-n2c(SCC(=O)Nc3ccccc3Cl)n[nH]c2=O)c(C)c1
→ -5, 96, 107, 85
Oc1ccccc1/C=N/c1nc(-c2ccccc2Cl)cs1
→ 0, 101, 97, 94
Cc1csc(N(C(=O)/C=C/c2ccco2)c2ccccc2)n1
→ -23, ·, 89, 85
N#Cc1c(NC(=O)COC(=O)C2=COCCO2)oc(-c2ccccc2)c1-c1ccccc1
→ -17, ·, 94, 75
NC(=O)CSc1ncc2c(n1)-c1ccccc1N(Cc1ccc(F)cc1)S2(=O)=O
→ ·, 102, 110, 69
Cc1sc2nc(SCC(N)=O)n(-c3ccccc3)c(=O)c2c1C
→ -21, ·, 103, 87
O=c1nc(SCc2ccccc2F)c2c(n1CCc1ccccc1)CCC2
→ -24, 104, ·, ·
COC(=O)c1ccccc1NC(=O)Nc1ccc(Cl)cn1
→ -7, 104, 105, 97
Cc1ccccc1NC(=O)C(C)Sc1nc2ncccc2o1 (configuration not stated)
→ 0, 109, 89, 80
CC1Cc2ccccc2N1Cc1cccc(S(=O)(=O)N(C)C)c1 (configuration not stated)
→ 2, ·, 116, 87
CC(C)(C)C1CCC(OC(=O)c2ccc3c(c2)OCO3)CC1 (configuration not stated)
→ -18, ·, 86, 91
CCOC(=O)c1c(NC(=O)c2ccc(F)cc2)sc(C(=O)Nc2cc(C(F)(F)F)ccc2Cl)c1C
→ -12, 95, ·, ·
Cc1ccccc1C(=O)NCC(c1ccc(N(C)C)cc1)N(C)C (configuration not stated)
→ -17, 99, ·, ·
COc1ccc(NC(=O)c2sc3nc(C)c(C(=O)Nc4ccc(C)cc4C)c(-c4ccc(Cl)cc4)c3c2N)cc1
→ 10, 103, 94, 87
O=C(NC1CSC/C1=N\O)c1ccccc1 (configuration not stated)
→ 12, 100, 123, 84
CN(C)c1ccc(C2C3=C(CC(C)(C)CC3=O)Oc3nc(N)c(C#N)c(N)c32)cc1 (configuration not stated)
→ -28, 102, 85, 79
O=C(OCCCc1nc2ccccc2[nH]1)c1cccc(F)c1
→ -24, 101, 89, 64
O=C(Nc1cc(Cl)cc(Cl)c1)C1CC1
→ 2, 96, 79, 63
N#CC(C(N)=S)=C1CCCCC1
→ -17, 96, 88, 59
O=C(O)CCSc1ccc2ccccc2c1
→ -27, 96, 116, 94
COc1ccc(NC(=O)CCCOc2ccccc2)cc1
→ -20, ·, 99, 84
COCC(C)NC(=O)C1CCN(S(=O)(=O)c2ccc(F)cc2)CC1 (configuration not stated)
→ ·, 105, 114, 81
CCOc1ccc(N=c2scc(-c3ccc(Cl)s3)n2C)cc1
→ ·, 104, 110, 89
CCOc1cc(C2C3=C(CC(c4ccc(O)cc4)CC3=O)Nc3onc(C)c32)ccc1O (configuration not stated)
→ -11, 108, ·, ·
COc1ccccc1C(=O)Oc1ccc(C#N)cc1
→ -30, ·, 71, 85

Continuation.
compound,HCMV UL50-53 inh,GIV-Gai inh,Sa growth 42C,Sa growth 42C second temp
C=C(C)C[N+](C)(C)Cc1c(C)ccc2ccccc12,-20,·,97,89
CC(=O)Nc1ccc(S(=O)(=O)NC2(C(F)(F)F)NC(=O)N(C3CCCCC3)C2=O)cc1 (configuration not stated),6,103,96,103
CC1(C)CC2CC(C)(CN2c2nc3ccccc3[nH]c2=O)C1 (configuration not stated),-24,·,97,92
CC1CC(C)CN(c2oc(-c3ccc(F)cc3)nc2C#N)C1 (configuration not stated),2,100,87,96
Cn1c(CSc2nc3ccccc3s2)nnc1SCC(=O)NCCO,-8,·,109,87
O=C(c1cc(-c2ccc3c(c2)OCO3)on1)N1CCOCC1,·,104,106,96
Cc1ccc(CNC(=O)c2cc3n(n2)CCCN(Cc2ccc(F)cc2)C3=O)cc1,0,97,·,·
CN(C)C12CC3CC(CC(C(=O)O)(C3)C1)C2,-4,98,97,100

New compounds follow:
compound,HCMV UL50-53 inh,GIV-Gai inh,Sa growth 42C,Sa growth 42C second temp
O=C(NCc1ccc2c(c1)OCO2)c1cccc(-n2cnc3cccnc32)c1,-1,101,·,·
Cc1ccc(NC(=O)CSc2nnc(C)n3c2cc2sccc23)cc1F,·,101,87,71
N#C/C=C1\SCC(=O)N1CC(=O)c1ccc(Br)cc1,-3,·,106,96
COc1cc(Cl)c(C)cc1NC(=O)CSC,8,102,91,100
COc1ccc(NC(=O)CCCn2c(=O)c3cccn3c3ccc(F)cc32)cc1OC,-12,98,·,·
COc1cccc(C2NC(=O)NC(C)=C2C(=O)OCCOc2ccccc2)c1OC (configuration not stated),-25,98,·,·
Cn1ccc2cc(S(=O)(=O)N3CCN(C(=O)Nc4ccc(Br)cc4)CC3)ccc21,5,100,·,·
CCOC(=O)c1c(C)oc2cc(Br)c(OCc3ccc([N+](=O)[O-])cc3)cc12,-12,105,·,·

New compounds follow.
compound,HCMV UL50-53 inh,GIV-Gai inh,Sa growth 42C,Sa growth 42C second temp
c1ccc(-n2ncc3c(NC4CCCC4)ncnc32)cc1,·,103&89,124,97
CCSc1nn(CC(=O)Nc2cc(C)ccc2C)c(N)c1S(=O)(=O)c1ccc(OC)cc1,-25,99,·,·
CCOc1ccccc1N1CC(C(=O)NC2CCCCCC2)CC1=O (configuration not stated),-36,·,102,94
O=c1cc(CO)oc2c1OCN(C1CCS(=O)(=O)C1)C2 (configuration not stated),5,107,101,88
O=C(/C=N/O)NCc1ccccn1,·,101,86,83
O=c1cc(CSc2nnnn2-c2ccccc2)[nH]c(=S)[nH]1,-7,103,105,99
O=C(NCc1ccccc1)c1ncn[nH]1,1,107,101,79
CCN1C(=O)/C(=C2/C=Cc3ccccc3N2CC)N(C)C1=S,-126,·,113,88

The list goes on:
compound,HCMV UL50-53 inh,GIV-Gai inh,Sa growth 42C,Sa growth 42C second temp
COC(=O)c1cc(-c2c(C)oc3cc(O)ccc3c2=O)c(C)o1,-41,·,100,96
COc1cccc(CNC(=O)c2nn(-c3ccccc3Cl)nc2CO)c1,-5,99,110,96
COC(=O)c1c(NC(=O)c2ccc(OC)cc2OC)sc2c1CCCCC2,-24,106,102,94
COC(=O)c1ccccc1NC(=O)c1ccc2c(Cl)c3c(nc2c1)CCCC3,-28,96,104,87
Cc1nn(-c2ccc(Cl)nn2)c2c1CCC2,-29,110,·,·
Cc1nc(Nc2cccc(Cl)c2)c2c(C)noc2n1,-15,101,·,·
CCN(CC)S(=O)(=O)c1ccc2c(c1)nc(CN(C)C(=O)Nc1cccc(Cl)c1)n2C,·,110,92,89
CCn1cc(C(=O)O)c(=O)c2cc(F)c(N(C)CCc3ccc(OC)c(OC)c3)cc21,-8,104,0.0*,0.3*

Going on with the list.
compound,HCMV UL50-53 inh,GIV-Gai inh,Sa growth 42C,Sa growth 42C second temp
c1ccc(-c2cc3c(ncn4cnnc34)s2)cc1,-55,·,136,92
CC(=O)c1c(C)oc2ccc(N(C(=O)Oc3ccccc3)S(=O)(=O)c3ccccc3)cc12,-11,101,98,89
O=C(CCSc1nc(-c2ccco2)cc(C(F)(F)F)n1)N1CCCC1,-12,106,89,94
O=C(CSc1ncc(-c2ccccc2)[nH]1)c1ccc(-c2ccccc2)cc1,8,·,111,123
O=C(NCCC1=CCCCC1)C1CCN(c2ccc(N3CCCC3)nn2)CC1,-17,103,·,·
Cc1cc(C)n(CCCNC(=O)CSc2ncnc3scc(-c4ccccc4)c23)n1,-12,·,89,85
COc1ccc(C)cc1NC(=O)Nc1cccc(-c2noc(C)n2)c1,·,102,109,85
CCOC(=O)c1c(C=O)oc2c(C)cc(OC(=O)c3ccc(Cl)cc3Cl)c(Br)c12,-8,99,·,·

New compounds follow:
compound,HCMV UL50-53 inh,GIV-Gai inh,Sa growth 42C,Sa growth 42C second temp
C1=C(c2cccs2)OC(c2cccs2)=CC1c1cccs1,-40,105,94,73
CCNc1nc(NCC)nc(NCCO)n1,-6,100,115,89
CC(=O)Nc1ccc2nc(NC(=O)c3ccc(S(=O)(=O)N4CCCCC4)cc3)sc2c1,-2,101,·,·
Cc1ccccc1-c1nc(NC(=O)CSc2ncnc3sc4c(c23)CCCC4)ns1,0,105,107,101
COc1ccc(CNC(=O)C2c3ccccc3C(=O)N(C)C2c2cccs2)cc1 (configuration not stated),·,104,92,84
COc1ccccc1NC(=O)C1=C(C)Nc2ncnn2C1c1ccc[nH]1 (configuration not stated),·,110,112,100
Cc1ccc2c(c1)-c1onc(C(=O)N3CCN(c4ccccn4)CC3)c1CO2,-15,107,·,·
COc1cc(OC)cc(-n2c(=O)c3sccc3n(Cc3cc(=O)n4c(C)cccc4n3)c2=O)c1,-1,102,95,101
CCNS(=O)(=O)c1ccc(OCC)c(-c2nc(C)no2)c1,-5,101,·,·
O=C(O)c1ccc(Nc2c(-c3cc(Br)ccc3O)nc3cnccn23)cc1,-55,99,·,·

As a short view, two of the compounds above.
compound,HCMV UL50-53 inh,GIV-Gai inh,Sa growth 42C,Sa growth 42C second temp
CCNS(=O)(=O)c1ccc(OCC)c(-c2nc(C)no2)c1,-5,101,·,·
O=C(O)c1ccc(Nc2c(-c3cc(Br)ccc3O)nc3cnccn23)cc1,-55,99,·,·
